RE007 growth inh – less growth of the S. pombe RE007 Vpr strain. Potency, µM (top dose mostly 92.2 µM), for the others: top-dose activity change, negative = less growth. AID 651644. actives 0.21% (n = 360,000). S. pombe RE007 Vpr strain, BacTiter-Glo ATP luminescence, 24 h; control for the full effect not named in the record; active = well fitted falling curve with a large enough effect; inconclusive = small, poorly fitted or top-dose-only effect; inactive = no such curve, though single readings can be large or run the other way;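 note: % is set by controls: 0 for no effect and ±100 for the full control effect; nearly all actives have a fitted effect of over 50% in size; the assay follows cell death caused by Vpr and the record does not say whether a fall means rescue or toxicity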
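Fission yeast strain RE007, carrying one chromosomally integrated HIV-1 vpr copy, was seeded at OD 0.01 in PMG+AL medium with 23 nL pinned compound. After 24 h at 30 °C and 99% humidity, viability was read by BacTiter-Glo luminescence.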
SARS PLpro yeast – SARS-CoV PLP inhibition in yeast; actives 0.19% (n = 330,000); S. cerevisiae expressing SARS-CoV PLpro, growth rescue; control for the full effect not named in the record; Potency, µM (top dose mostly 32.9 µM), inactives show at the highest dose activity, positive = growth rescue; active means well fitted rising curve with a large enough effect; inconclusive means small, poorly fitted or top-dose-only effect; inactive means no such curve, though single readings can be large or run the other way; note: 0% is about no effect; nearly all actives have a fitted effect of over 55% in size; growth read by luminescence after 48 h
MARV entry inh – inhibitors of Marburg virus binding or cell entry; Marburg virus pseudotyped entry inhibition, cell reporter; control for the full effect not named in the record; about a third of the inactives were read at about 46 µM; AID 540276; actives 1.8% (n = 300,000); Potency, µM (highest dose often 37.8 µM), for inactives: at the top dose activity change, negative = inhibition, usual class: inhibitors; active = well fitted inhibition curve with a large enough effect; inconclusive = small, poorly fitted or top-dose-only effect, or effect the other way; inactive = flat fitted curve, though single readings scatter; tested in HEK293 cells; about a fifth of its hits are not listed in these tables; note: % is set by controls: 0 for no effect and ±100 for the full control effect; luciferase read-out
LASV entry inh – blocks Lassa virus binding to or entry into cells. Lassa virus pseudotype entry inhibition, cell reporter; control for the full effect not named in the record. Potency, µM (highest dose often 37.9 µM), for inactives: at the highest dose activity change, negative = inhibition, actives largely listed as inhibitors. actives 1.2% (n = 300,000); active means well fitted inhibition curve with a large enough effect; inconclusive means small, poorly fitted or top-dose-only effect, or effect the other way; inactive means flat fitted curve, though single readings scatter; tested in HEK293 cells; note: % is set by controls: 0 for no effect and ±100 for the full control effect; nearly all actives have a fitted effect of over 50% in size; luciferase read-out
StopGo reporter – lowers the luciferase signal of an FMDV 2A StopGo reporter. human cells with a luciferase reporter of 2A StopGo recoding; control for the full effect not named in the record. Potency, µM (top dose mostly 57.9 µM), for the others: top-dose signal change, negative = less light. actives 1.2% (n = 410,000). AID 1159524; active = well fitted falling curve with a large enough effect; inconclusive = small, poorly fitted or top-dose-only effect; inactive = no such curve, though single readings can be large or run the other way; tested in HEK293T cells; note: % is set by controls: 0 for no effect and ±100 for the full control effect; nearly all actives have a fitted effect of over 45% in size; luciferase light after 4 h
Cruzain inh Det – cruzain (T. cruzi) inhibition with detergent. P25779. purified cruzain, Z-FR-AMC fluorescence, 0.01% Triton. Potency, µM, for the others: max response, negative = inhibition, hits mostly inhibitors. actives 0.43% (n = 200,000). AID 1478;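 note: plate controls were neutral wells for no effect and buffer without enzyme for full effect; nearly all actives have a fitted effect of over 40% in size; top concentration of the series not given in the record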
Target sequence (P25779 123-467 limits assumed): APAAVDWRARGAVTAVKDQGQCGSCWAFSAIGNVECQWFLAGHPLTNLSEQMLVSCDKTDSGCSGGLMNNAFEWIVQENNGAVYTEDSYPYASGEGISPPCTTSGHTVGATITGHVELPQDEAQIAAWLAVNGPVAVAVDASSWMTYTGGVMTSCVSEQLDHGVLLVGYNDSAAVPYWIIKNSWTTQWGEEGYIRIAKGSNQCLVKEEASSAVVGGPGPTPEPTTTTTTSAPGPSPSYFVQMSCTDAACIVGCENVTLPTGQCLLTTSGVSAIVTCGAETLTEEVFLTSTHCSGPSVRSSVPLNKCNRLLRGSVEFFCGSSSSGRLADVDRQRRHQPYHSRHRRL
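Detergent-containing run (0.01% Triton X-100) in acetate buffer pH 5.5 with 5 mM DTT: enzyme at 1.5 nM final, 15 min compound preincubation at room temperature, then 2 uM Z-FR-AMC substrate. Activity taken as 60 s fluorescence increase at 360/450 nm.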
Cruzain noTriton – inhibitors of Trypanosoma cruzi cruzain without detergent; Potency, µM, inactives show max response, negative = inhibition, most hits filed as inhibitors; actives 2.3% (n = 200,000); purified cruzain, Z-FR-AMC fluorescence, no detergent; P25779;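 note: plate controls were enzyme without inhibitor for no effect and buffer without enzyme for full effect; nearly all actives have a fitted effect of over 40% in size; top concentration of the series not given in the record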
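Purified cruzain at 1.5 nM, pre-incubated 15 min with compound at room temperature in 100 mM sodium acetate pH 5.5, 5 mM DTT, 0.00005% Triton X-100. Reaction started with 2 uM Z-FR-AMC; AMC fluorescence increase over 60 s gives rate.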
NS1 inh – blocks influenza NS1 protein function; actives 0.4% (n = 270,000); S. cerevisiae slowed by influenza A NS1, growth recovery by OD600; AID 2326; Potency, µM (top dose mostly 46.1 µM), for the others: at the top dose activity, positive = more growth; active means well fitted rising curve with a large enough effect; inconclusive means small, poorly fitted or top-dose-only effect; inactive means no such curve, though single readings can be large or run the other way; note: nearly all actives have a fitted effect of over 50% in size
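Read-out: OD600 growth recovery of NS1-expressing budding yeast. Cells grown overnight at 30C in -URA glucose medium, washed, resuspended and diluted 1:100 in 2% galactose assay medium, pH 6.0. Same strain lacking NS1 served as positive control.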
The depositor's hits bear a star; ? = inconclusive; / = no result given; & = joins results of further samples; [ ] = another dose, or the depositor's remark. Unless noted, calls come from the whole dose curve; as a rule, active = well fitted curve in the direction sought with a large enough effect; inconclusive = small, poorly fitted or top-dose-only effect, or another doubt; inactive = no such curve, though single readings can be large; an effect the other way counts as inactive or inconclusive. Potency is the fitted concentration of half-maximal effect.

Order of values: RE007 growth inh | SARS PLpro yeast | MARV entry inh | LASV entry inh | StopGo reporter | Cruzain inh Det | Cruzain noTriton | NS1 inh
- O=C(NC1=NCCS1)[C@H](Cc1ccccc1)N1C(=O)c2ccccc2C1=O
→ 0% | -5% | 10% | 10% | 10% | -2.1% | -18% | 19%
- CCOc1ccc(CC(=O)NCC2(N3CCCCC3)CCCCC2)cc1
→ -13% | -3% | -28%[46.1 µM] | 11% | -11% | / | / | -6%
- COc1cc2c(cc1OC)CN(C(=O)Cn1ccccc1=O)CC2
→ 15% | 2% | / | / | -17% | / | / | 7%
- COc1ccccc1NC(=O)CSc1nnc(C2CCCCC2)o1
→ 0% | 5% | 20% | 15% | -1% | 2.7% | -4% | -51%
- CC(C)C(CC(=O)NCc1ccco1)c1ccco1 (stereo not drawn)
→ -3% | 1% | -6% | 8% | 17% | -8.5% | ? | -2%
- Cc1nc2cc3ccccc3cc2c(=O)[nH]1
→ -3% | -31% | ? | -3% | 73%[activator] | -6.3% | ? | -63%
- CCN(Cc1ccccc1)c1ccc(/C=N/NC(=O)c2cccc(S(=O)(=O)N3CCOCC3)c2)cc1
→ 6% | -9% | ? | ? | ? | -2.8% | ? | 29%
- CN(CCOC(=O)c1ccccc1)Cc1ccccc1
→ -4% | 15% | 4% | 3% | -4% | -0.9% | -3% | 22%
- COc1ccc(OCC(=O)Nc2ccncc2)cc1
→ -14% | -1% | / | / | -24% | / | / | 1%
- NC(=O)c1ccc[n+](CC(=O)c2cccc([N+](=O)[O-])c2)c1
→ 4% | 1% | / | / | 3% | / | / | 5%
- O=C(Nc1ccc(S(=O)(=O)Nc2nccs2)cc1)c1cccc(F)c1
→ -12% | 1% | 17%[46.1 µM] | / | 74%[activator] | / | / | 3%
- COc1ccc(-c2noc(CSc3nc4sc(C)c(C)c4c(=O)n3-c3ccccc3)n2)cc1OC
→ 8% | 1% | -6% | -25% | / | 0.0% | -18% | 2%
- N#CCSc1ncnc2ccccc12
→ -30% | 0% | / | / | ? | / | / | -2%
- Clc1ccc2ncc(-c3nnnn3-c3ccccc3)c(-c3ccccc3)c2c1
→ -19% | -12% | ? | ? | 0% | -4.0% | -2% | 8%
- COc1cccc(CSc2nnc(C(F)(F)F)n2Cc2ccc(F)cc2)c1
→ -19% | -6% | 5% | ? | -8% | -1.6% | -3% | -20%
- CCOCc1nnc(NC(=O)c2ccc(NC(C)=O)cc2)s1
→ 7% | 1% | / | / | 11% | / | / | 2%
- C[C@H](NC(=O)C(c1ccccc1)c1ccccc1)c1ccccc1
→ -1% | -2% | ? | -2%[46.1 µM] | 0% | / | / | -4%
- O=C(CN1C(=O)NC2(CCCC2)C1=O)Nc1cc(Cl)ccc1N1CCCC1
→ -7% | 0% | 5% | 0% | -16% | / | / | 1%
- COc1ccc(C2Nc3ccccc3C(=O)N2Cc2ccco2)cc1COc1ccc(F)cc1 (stereo not drawn)
→ 2% | 14% | ? | ? | ? | -9.4% | 25µM* | ?
- CCOC(=O)C1CCCN(CC(O)COCc2ccc3c(c2)OCO3)C1 (stereo not drawn)
→ -4% | 0% | -4%[46.1 µM] | / | -2% | / | / | -4%
- O=C1c2ccccc2C(=O)N1CCc1c[nH]c2ccc(O)cc12
→ -4% | 1% | 10%[46.1 µM] | 16% | 25% | / | / | 2%
- CC(=O)COC(=O)c1cccc(N2C(=O)C3C4C=CC(C4)C3C2=O)c1 (stereo not drawn)
→ -1% | 14% | 14% | -8% | -6% | 0.3% | 10% | -18%
- COC(=O)c1scc(C)c1NC(=O)Cc1ccccc1
→ -1% | 4% | -11% | 2% | -7% | 3.1% | 2% | -3%
- CC(NC(=O)c1ccc2c(c1)OCCO2)c1ccc(S(N)(=O)=O)cc1 (stereo not drawn)
→ 7% | 0% | -6%[46.1 µM] | 7%[46.1 µM] | 24% | / | / | /
- Cc1cccc(Cc2cnc(NC(=O)c3ccc(C)o3)s2)c1
→ ? | -10% | ? | 11% | 25% | -8.2% | -21% | -78%
- CCOC(=O)C1CCN(C(=O)c2cc3ccc4ccc(C)[nH]c4c3n2)CC1
→ / | / | / | 13%[46.1 µM] | 25% | -6.4% | -5% | /
- COc1ccc(C(=O)CCC(=O)NC2=NCCS2)cc1
→ 1% | 2% | / | / | 2% | / | / | 7%
- CC1(CCc2ccc3c(c2)OCO3)NC(=O)c2ccccc2N1 (stereo not drawn)
→ -12% | 17% | -19% | 4% | -24% | -1.3% | 3% | 11%&0%
- O=C(CCc1ccccc1)Nc1cccc(-c2nnc(-c3ccco3)o2)c1
→ -2% | -6% | -18% | 5% | ? | -2.3% | 2% | -87%
- COc1ccc(NC(=O)C/C(C)=N/NC(=O)c2ccccn2)c(OC)c1
→ -3% | 6% | ? | -26% | 30%[activator] | / | / | -16%
- COc1ccc(-n2nc(C(=O)Nc3nc4ccc(OC)cc4s3)c3ccccc3c2=O)c(OC)c1
→ / | 19% | 3% | 5% | / | -3.5% | 1% | 10%
- COCCn1c(C)cc(C(=O)COC(=O)CCc2ccc(S(=O)(=O)N3CCOCC3)cc2)c1C
→ -4% | 6% | 4% | 21% | -18% | 0.8% | ? | -7%
- COc1ccc(CC(=O)OCC(=O)NC2CCCCCC2)cc1OC
→ -17% | 1% | -1%[46.1 µM] | 4% | -17% | / | / | /
- CSc1oc(-c2ccc(F)cc2)nc1S(=O)(=O)c1ccc(Br)cc1
→ / | / | -11%[46.1 µM] | ? | -21% | -2.1% | 11% | /
- O=C(Nc1ccccc1C(F)(F)F)NC1CCCCCCC1
→ -13% | -6% | 16% | -6% | 15% | 2.3% | -2% | -12%
- O=C(Cn1nnc(-c2cccs2)n1)NCc1ccccc1
→ -5% | -2% | 22% | -11% | 24% | / | / | -2%
- O=C(N/N=C/c1ccc(N2CCCC2)c([N+](=O)[O-])c1)c1cccnc1
→ -23% | 0% | 9%[46.1 µM] | / | 30% | / | / | 9%
- CCCCOC(=O)N1CCOCCOCCOCCOCC1
→ 11% | 1% | 6%[46.1 µM] | -2%[46.1 µM] | -6% | / | / | -5%
- COc1ccc(O)c(C2NC(CC(C)C)(C(=O)O)C3C(=O)N(Cc4ccccc4)C(=O)C23)c1 (stereo not drawn)
→ 9% | -4% | 14% | 10% | 10% | 3.6% | 1% | -1%
- CCN(CC)C(=O)c1cc2sc3ccccc3c2s1
→ ? | -29% | -6% | ? | 56%[activator] | -8.6% | 5% | -135%
- O=C(Nc1cccc(C(F)(F)F)c1)c1cccnc1
→ -11% | / | -13% | 2% | 20% | 2.5% | 3% | -88%
- O=C(c1ccco1)N1CCN(C(=O)c2ccc(CS(=O)c3ccc(Cl)cc3)o2)CC1 (stereo not drawn)
→ -2% | 9% | / | / | -8% | / | / | 5%
- O=C(O)CC1(CC(=O)NCc2ccccn2)CCCCC1
→ 6% | 0% | / | / | -13% | / | / | 3%
- COc1ccc(-n2c(=O)c3c4c(sc3n3c(SCCC(C)C)nnc23)COC(C(C)C)C4)cc1 (stereo not drawn)
→ / | / | 15%[46.1 µM] | -14%[46.1 µM] | 0% | -1.3% | 4% | /
- CNc1nnc(CSc2nc3ccccc3s2)s1
→ 4% | -1% | 3% | 5% | 31%[activator] | -2.1% | -3% | -34%
- Cc1ccc(OCC(O)Cn2c(N)nc3c2c(=O)n(C)c(=O)n3C)cc1 (stereo not drawn)
→ 7% | 0% | -18%[46.1 µM] | -10%[46.1 µM] | -27% | / | / | -1%
- COc1ccc(NC(=O)c2cc(S(=O)(=O)N3CCOCC3)cn2C)cc1Cl
→ -6% | 2% | / | -5%[46.1 µM] | -12%&11% | 1.1% | -2% | -8%
- CC1CCc2c(sc3ncnc(N4CCOCC4)c23)C1 (stereo not drawn)
→ 13% | / | -21% | 10% | -28% | -5.5% | 0% | -106%
- CCCNC(=O)CN(C1CCCCC1)S(C)(=O)=O
→ 0% | / | 23% | -3% | -20% | 1.9% | -1% | 12%
- Cc1ccc2nc(N3CCN(C(=O)CCC(=O)O)CC3)nc(-c3ccccc3)c2c1
→ -9% | 0% | / | / | -13% | / | / | 1%
- NC(=O)C(=O)O
→ / | / | ? | ? | / | 3.2% | 8% | 0%
- Cc1ccc(NC(=O)C2C3C=CC4(CN(Cc5cccnc5)C(=O)C24)O3)cc1F (stereo not drawn)
→ 15% | -8% | 0% | 0% | 7% | 0.0% | -11% | -3%
- CCCc1cc2c(cc1NC(=O)c1ccccc1Cl)OCO2
→ 24% | 7% | -6% | -1% | 4% | -4.3% | 0% | -22%
- C=CCNc1sc(C(=O)C2CC2)c(N)c1C#N
→ 21% | -2% | 5%&5% | 0% | -24% | -4.5% | -9% | 6%
- CCOC(=O)c1cnc2c(C(=O)OC)cccc2c1NCc1ccco1
→ 9% | 0% | -6% | 4% | -30% | -14% | -20% | 0%
- COc1ccc(OC(=O)CSc2nnc(-c3ccc(F)cc3)o2)cc1
→ / | / | -23%[46.1 µM] | 26%[46.1 µM] | -14% | 1.4% | 10% | /
- O=C(NNC(=O)c1ccc2ccccc2c1O)c1cccs1
→ -6% | -1% | ? | ? | 29% | / | / | -88%
- O=C(NC1CCCC1)c1sc(=S)n2c1[nH]c(=O)c1ccccc12
→ -1% | -9% | 1% | 3% | 0% | 3.6% | -3% | -64%
- Cc1ccc(CNS(=O)(=O)c2ccc3c(c2)CCN3C(=O)CCCC(=O)O)cc1
→ 28% | 0% | 0%[46.1 µM] | 10% | -3% | / | / | /
- CCc1cccc(C)c1NC(=O)Cn1cc2c(n1)CCCCC2
→ / | / | -3%[46.1 µM] | 17%[46.1 µM] | -26% | -2.9% | -8% | /

Complete entries as entered above. Screens in order: RE007 growth inh, SARS PLpro yeast, MARV entry inh, LASV entry inh, StopGo reporter, Cruzain inh Det, Cruzain noTriton, NS1 inh
Cc1ccc(NC(=O)C2C3C=CC4(CN(Cc5cccnc5)C(=O)C24)O3)cc1F (stereo not drawn) reads 15%, -8%, 0%, 0%, 7%, 0.0%, -11%, -3%
COc1ccc(O)c(C2NC(CC(C)C)(C(=O)O)C3C(=O)N(Cc4ccccc4)C(=O)C23)c1 (stereo not drawn) reads 9%, -4%, 14%, 10%, 10%, 3.6%, 1%, -1%
